From PubChem
CapD inh – blocks the Bacillus anthracis CapD enzyme; z-score (concentration not given with the values); purified CapD enzyme, fluorescence intensity read-out; hits give low values; some hits fall short of the stated cut; AID 492967; 140,000 compounds, 0.23% hits;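 active means z-score under -4 in either of two replicates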;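 further: stock transfer was 100 nL into about 40 µL; score is relative to mean and spread of the plate; one replicate is shown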
AID504770 – growth inhibitors of E. coli YBA685 in a screen for V. cholerae RctB (chromosome II replication) inhibitors; z-score (test concentration not listed); E. coli YBA685 rctB-dependent plasmid, OD600 growth, 3 h; hits give low values; 130,000 compounds, 0.27% hits;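 active means z-score under -2 on both plates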;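 further: wells of about 30 µL received 100 nL stock; score is relative to mean and SD of the test wells; the first replicate is given; strong numbers were not always called active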
* hit, by the source's call; · = not tested or not shown. These rows are one share of the data (hit frequency here may not be typical).

Screens in order – CapD inh	AID504770
> CC(C)N(C(=O)CSc1ccc(-c2ccc3c(c2)OCCO3)nn1)C(C)C
 : ·	0.1
> COC(=O)CSc1nc2sc3c(c2c(=O)n1-c1ccccc1)CCC3
 : -1.1	1.2
> O=C(Nn1c(-c2ccc(Br)cc2)nc2ccccc2c1=O)c1cccc([N+](=O)[O-])c1
 : -0.24	·
> COC(=O)c1nnn(CC(=O)Nc2ccccc2)c1C(=O)OC
 : -0.2	0.35
> CCOC(=O)CSc1nc2ccccc2c(=O)n1-c1ccccc1
 : -0.95	-0.75
> CCOc1ccc(-n2cc(C(=O)N3CCN(c4ccccc4OC)CC3)c3cc(OC)c(OC)cc3c2=O)cc1
 : 0.94	0.35
> CC(C)n1c(-c2cccc(Br)c2)nc2ccccc21
 : 0.83	-1.1
> COc1ccc(C2(O)C(C)N(c3ccccc3)C3=[N+]2CCCS3)c(F)c1 (centres undefined)
 : 5.8	·
> O=C1NC(=O)c2cc(Cl)c(Cl)cc21
 : ·	-0.05
> O=C(COc1ccc2c(c1)OCO2)Nc1ccccc1C(F)(F)F
 : -0.2	0.25
> CNC(=S)N1CC2CC(C1)c1cccc(=O)n1C2 (centres undefined)
 : ·	0.9
> CCOC(=O)c1cccnc1SC(CC)C(=O)N1CCOCC1 (centres undefined)
 : -0.45	-0.15
> O=c1sn(-c2ccccc2C(F)(F)F)c(=O)n1CC1CC1
 : 0.38	-1.2
> COc1ccc(CCNC(=O)c2cc3ccccc3c(=O)o2)cc1OC
 : 0.15	0.35
> CC1=C(C(=O)OCc2ccc3c(c2)OCO3)C(c2ccc(Cl)c(Cl)c2)NC(=O)N1 (centres undefined)
 : -0.23	·
> COc1ccc(CC(=O)NNC(=O)OCCCC2CCCCC2)c(OC)c1
 : 0.41	·
> CCOC(=O)c1c(CN2CCCCC2)n(C)c2cc(Br)c(OC)cc12
 : -0.14	·
> CCOC(=O)CSc1nc2ccccc2n1C
 : 0.41	·
> COC(=O)c1cc(Nc2nc(C)nc3sc4c(c23)CCC4)cc(C(=O)OC)c1
 : 1.2	·
> COc1ccc(N(CC(O)Cn2c3ccc(Cl)cc3c3cc(Cl)ccc32)S(=O)(=O)c2ccc(C)cc2)cc1 (centres undefined)
 : 0.5	·
> CCOC(=O)C1CN(c2ccc(C)cc2)CC1=O (centres undefined)
 : -1.1	-0.55
> COc1ccc(-c2nnc(SCC3CNC(=O)O3)n2C)cc1 (centres undefined)
 : ·	-0.25
> CCN(C(=O)c1cccs1)C1CCS(=O)(=O)C1 (centres undefined)
 : ·	-0.9
> CC(=O)N/C(=C\C=C\c1ccccc1)C(=O)O
 : -1.4	-0.4
> O=C(CCc1nc2ccccc2c(=O)[nH]1)Nc1ccc2c(c1)CCC2
 : ·	0.35
> CCc1nc2cc(C)nn2c2nc3ccccc3n12
 : 0.47	-0.65
> Cc1ccc(NC(=O)C2C3CCCC2C3c2ccccc2)cc1 (centres undefined)
 : -0.28	·
> COc1ccc2nc(Nc3nnc(-c4cccs4)o3)sc2c1
 : ·	0
> O=C(CCc1nc2ccccc2c(=O)[nH]1)NCc1ccccn1
 : ·	-0.6
> Cc1ccc2c(c1)-c1sc(C(=O)Nc3cccc(Cl)c3)cc1CS2
 : 7.3	·
> Cc1ccc(S(=O)(=O)N2CCN(c3ccccc3F)CC2)cc1[N+](=O)[O-]
 : -0.23	·
> Cc1ccc(S(=O)(=O)Nc2ccc3c(c2)c2c(n3S(=O)(=O)c3ccc(C)cc3C)CC(C)(C)CC2=O)c(C)c1
 : -0.42	·
> COc1cc(C(F)(F)F)c(C(=O)Nc2cccc(C)c2C)cn1
 : -0.3	-0.35
> CCCn1c(=S)[nH]c2ccccc2c1=O
 : ·	-0.75
> Cc1nn(CC(=O)N2CCCC2)c(=O)c2ccccc12
 : 0.055	0
> CCOC(=O)c1c(NC(=S)NCCc2ccccc2)sc2c1CC(C)(C)OC2
 : -0.47	·
> CC(=O)N1CCN(Cc2cc(=O)oc3cc(C)ccc23)CC1
 : 0.29	-0.25
> CCCCNS(=O)(=O)c1ccc2c(c1)C(=O)c1cc(S(=O)(=O)NCCCC)ccc1-2
 : 0.03	·
> Cc1cn(C2OC(COC(=O)c3ccccc3)C(OC(=O)c3ccccc3)C2OC(=O)c2ccccc2)c(=O)[nH]c1=O (centres undefined)
 : -0.37	·
> O=C1CC(c2ccc(-c3ccccc3)cc2)c2cc(Br)c3ccccc3c2N1 (centres undefined)
 : -0.28	·
> O=C1Nc2ccccc2N(O)N1c1ccc(S(=O)(=O)N2CCCCCC2)cc1
 : -1	0.9
> COc1ccccc1NS(=O)(=O)c1cccc(C(=O)N/N=C/c2c(CO)cnc(C)c2O)c1
 : ·	-1.1
> O=c1c2ccccc2nc(SCc2ccccc2F)n1CCc1ccccc1
 : -0.15	-1.1
> O=C(C1CC1)N1CCc2ccccc21
 : -0.13	-0.4
> CCOc1ccccc1C(=O)N1CCN(C(c2ccccc2)c2ccccc2)CC1
 : 0.15	-0.25
> COc1ccc(C(=O)NCCCc2nc3ccccc3[nH]2)cc1OC
 : 0.22	-0.35
> N#Cc1cnc(Nc2cccc(C(F)(F)F)c2)nc1N
 : 2.5	-0.5
> CCCc1ccc(OCCNC(C)=O)c(OC)c1
 : 0.46	-1.1
> O=C(CN1CCN(C2CCCCC2)CC1)N(c1ccccc1)c1ccc(O)cc1
 : ·	-0.45
> CCCN1CC=C2C(C#N)=C(N)C(C#N)(C#N)C3(C(=O)Nc4ccccc43)C2C1 (centres undefined)
 : 7.8	-0.4
> Cc1c(N/C=C/C(=O)C(F)(F)F)c(=O)n(-c2ccccc2)n1C
 : ·	-0.4
> CCN1CCN(C(c2cccnc2)c2c(NC(C)=O)sc3c2CCCC3)CC1 (centres undefined)
 : ·	0.75
> CC(=O)N1c2ccccc2N(C)C(=O)C1(C)C
 : ·	0.5
> Cc1ccc(-c2nnc(N3CCCCC3)c3ccccc23)cc1S(=O)(=O)N(C)C
 : 0.33	·
> N#CCCN/N=C/c1ccc(-c2ccc(SC(F)F)cc2)o1
 : ·	0.05
> O=C1CCCc2oc3ccc(NS(=O)(=O)c4ccc5ccccc5c4)cc3c21
 : 0.41	·
> COc1cccc2cc(-c3nnc(-c4ccc([N+](=O)[O-])cc4)o3)c(=O)oc12
 : -1.2	·
> CC(=O)Nc1ccc2nc(NC(=O)c3ccc(F)cc3)sc2c1
 : 6.2	-0.1
> O=c1oc2cc(O)ccc2cc1-c1cccc(Br)c1
 : 40	1.6
> NC(C(=O)O)C12CC3CC(CC(C3)C1)C2 (centres undefined)
 : 0.49	-0.35

Some of the entries above in a different format.
mol,CapD inh,AID504770
CC(=O)N1c2ccccc2N(C)C(=O)C1(C)C,·,0.5
Cc1ccc(-c2nnc(N3CCCCC3)c3ccccc23)cc1S(=O)(=O)N(C)C,0.33,·
N#CCCN/N=C/c1ccc(-c2ccc(SC(F)F)cc2)o1,·,0.05

More entries follow:
Screens in order – CapD inh	AID504770
> O=[N+]([O-])c1ccc2nc(-c3ccccc3)n(OCc3ccc(Cl)cc3)c2c1
 : -1.1	·
> O=C(NCCCN1CCOCC1)c1ccc2c(=O)n(Cc3cccc(Br)c3)c(=S)[nH]c2c1
 : -0.36	·
> COc1ccc(OC)c(Nc2ncnc3c2cnn3-c2ccc(Cl)cc2)c1
 : -0.33	·
> Cc1cc(S(=O)(=O)NCC(C)C)ccc1OCC(=O)N1CCN(Cc2ccc3c(c2)OCO3)CC1
 : -1.5	-0.2
> CCC(=O)N(Cc1cc(=O)[nH]c2ccccc12)C1CCCCC1
 : ·	-1.4
> Cc1ccc(C(=O)N/C(=C\c2cccnc2)C(=O)N2CC3CC(C2)c2cccc(=O)n2C3)cc1 (centres undefined)
 : -0.19	-0.7
> N#CC(c1c[nH]c2ccccc12)N1CCOCC1 (centres undefined)
 : 0.015	-0.55
> CCC(C)(C)n1nnnc1C(C(C)C)N(Cc1cccnc1)Cc1ccco1 (centres undefined)
 : ·	-0.35
> O=C(NCc1ccco1)C1c2ccccc2Oc2ccccc21
 : 0	0.65
> Cc1ccc(-c2nnc(N(CC(C)C)C(=O)c3ccco3)s2)cc1
 : ·	-0.6
> CC(C)(C)C(=O)CSc1nc2c(sc(=S)n2CCc2ccccc2)c(=O)n1Cc1ccco1
 : 0.76	-0.3
> COc1ccc(C2=NOC(C(=O)NCCc3ccccc3)C2)cc1 (centres undefined)
 : -0.005	-1
> O=S(=O)(c1ccc(Br)cc1)N1CCOCC1
 : ·	-0.05
> Cc1cccnc1NC(=O)c1ccccc1C(=O)O
 : 4.3	1.2
> O=C1OCCC1OC(=O)C12CC3CC(CC(C3)C1)C2 (centres undefined)
 : -0.32	-1.1
> O=C(Cc1ccc(-n2c(=S)[nH]c3ccccc3c2=O)cc1)NC1CCCCC1
 : -0.55	-0.9
> CCc1nc2sc3c(c2c(=O)n1O)CCC3
 : 0.33	1.6
> O=C(NC1CCCCCC1)C1Cc2ccccc2CN1C(=O)c1ccco1 (centres undefined)
 : ·	1.2
> CCC(=O)N1N=C2CC(C)(C)OCC2C1c1ccccc1 (centres undefined)
 : 0.78	0.1
> CC1CCN(Cc2ccc(NC(=O)c3ccc4c(=O)n5c(nc4c3)CCCCC5)cc2)CC1
 : -0.73	-0.85
> COC(=O)c1c(NS(=O)(=O)c2ccccc2)csc1C
 : -1.6	-0.6
> O=C(c1cccc(N2C(=O)C3CC=CCC3C2=O)c1)N1CCCc2ccccc21 (centres undefined)
 : -0.72	1.2
> Cc1ccc(NC2SC(=O)NC2=O)cc1 (centres undefined)
 : -0.22	-0.05
> N#Cc1c(NC(NC(=O)c2ccccc2)C(=O)c2cccs2)sc2c1CCCC2 (centres undefined)
 : 0.085	0.3
> CCCCCCCCCCc1ccc(-c2ccccc2)cc1
 : -0.03	·
> O=C1CC(N2CCCCC2)C=C1Nc1ccc(F)cc1 (centres undefined)
 : -1	-0.3
> Cc1n[nH]c(=O)c2noc(/C=C/c3ccc(Cl)c(Cl)c3)c12
 : 1.2	-0.25
> Cc1ccc(N(CC(O)CN2CCCC2)S(=O)(=O)c2ccc(C)cc2)cc1 (centres undefined)
 : -0.36	·
> N#CC1=C2SCN(CCCc3ccccc3)CN2C(=O)CC1c1ccc(Cl)cc1 (centres undefined)
 : -0.49	1.6
> CCOC(=O)C(C)Sc1nnc(NC(=O)c2cc(Br)ccc2Cl)s1 (centres undefined)
 : -0.45	-0.65
> FC(F)(F)c1nnc2ccc(N3CCCCC3)nn12
 : 0.27	-0.15
> O=C(CS(=O)(=O)c1cn(Cc2ccc(F)cc2)c2ccccc12)NC1CCCCC1
 : -0.68	-0.4
> Cc1cc(C)c2cc(C(=O)N3CCC(Cc4ccccc4)CC3)[nH]c2c1
 : -0.58	-1.9
> CCC1CCCCN1C(=O)COC(=O)COc1ccc(Br)cc1 (centres undefined)
 : 0.76	-0.3
> NC(=S)c1cnc(-c2ccncc2)nc1N
 : -1.3	-0.1
> O=C(CCC(=O)NC1CCN2CCCc3cccc1c32)NCc1ccc(Cl)cc1 (centres undefined)
 : 0.92	·
> CCOc1ccc(-c2cc(NC(=O)CCSCCc3ccccn3)on2)cc1OCC
 : 0.88	0.15
> CCOC(=O)N1CCN(C(=O)c2ccc3nc(-c4ccccc4)c(-c4ccccc4)nc3c2)CC1
 : 2.1	-0.45
> Cc1cc(S(=O)(=O)N2CCN=C2c2ccccc2)ccc1F
 : 0.42	1.5
> COc1ccc(S(=O)(=O)NCc2ccco2)cc1
 : 0.44	-0.6

The final six compounds of the section above come first, to join the parts.
Screens in order – CapD inh	AID504770
> NC(=S)c1cnc(-c2ccncc2)nc1N
 : -1.3	-0.1
> O=C(CCC(=O)NC1CCN2CCCc3cccc1c32)NCc1ccc(Cl)cc1 (centres undefined)
 : 0.92	·
> CCOc1ccc(-c2cc(NC(=O)CCSCCc3ccccn3)on2)cc1OCC
 : 0.88	0.15
> CCOC(=O)N1CCN(C(=O)c2ccc3nc(-c4ccccc4)c(-c4ccccc4)nc3c2)CC1
 : 2.1	-0.45
> Cc1cc(S(=O)(=O)N2CCN=C2c2ccccc2)ccc1F
 : 0.42	1.5
> COc1ccc(S(=O)(=O)NCc2ccco2)cc1
 : 0.44	-0.6
> Cc1ccc(-c2n[nH]c(=O)c3ccccc23)cc1S(=O)(=O)N1CCN(Cc2ccccc2)CC1
 : 0.025	0.4
> CCOc1cc(C2C(C(=O)OC)=CN(Cc3ccc(OC)cc3)C=C2C(=O)OC)cc(Br)c1OC
 : 29	·
> C=CCn1c(SCC(=O)c2cccs2)nc2sc(C)cc2c1=O
 : ·	-0.05
> C=CCN1C(=O)c2ccccc2Sc2ccc(C(=O)NCC(OC)OC)cc21
 : -0.015	-0.55
> Cc1nc(-c2ccc(C(F)(F)F)cc2)sc1C(=O)NNC(=O)OCC1CCOC1 (centres undefined)
 : 14	·
> Cc1cc(=O)oc2c3c(ccc12)OCN(c1ccccc1)C3
 : 65	-0.65
> CC(=O)c1c(C)n(S(=O)(=O)c2ccccc2)c2ccc(NS(=O)(=O)c3ccccc3)cc12
 : -0.2	·
> O=c1[nH]c2ccccc2c(=O)o1
 : 63	-0.9
> Cc1ccc(S(=O)(=O)NCCCO)cc1C(=O)O
 : 0.6	0.35
> CC(=O)NC12CC3CC(C1)CC(C(=O)Nc1ccc(N4CCCCC4)cc1)(C3)C2
 : ·	-0.35
> CC1(C)CC(=O)C2=C(C1)Nc1ccc3ccccc3c1C2c1ccc([N+](=O)[O-])cc1 (centres undefined)
 : -0.97	·
> C/C(=C\C=C\c1ccccc1)C(=O)c1c(C)cc(C)[nH]c1=O
 : 0.15	-0.85
> COc1cc(OC)c(CN2CCN(C(=O)OCc3cccc(C)n3)CC2)c(OC)c1
 : 0.28	·
> O=C(CN1CCN(Cc2ccccc2)CC1)NC1CC1
 : 0	-1.1
> CSc1ccc(-c2nc3ccccc3c(=O)[nH]2)cc1
 : 7.3	-0.9
> Cc1cccc(C(=O)n2ccc(-c3ccc(Oc4ncccn4)cc3)n2)c1
 : 0.67	·
